From PubChem BioAssay
HCMV UL50-53 inh – disrupts HCMV UL50-UL53 complex binding; 190,000 tested, 0.15% active; AID 1918969; inhibition, % (test concentration not listed); HTRF UL50-UL53 interaction, normalized percent inhibition;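 active = both replicates at 50% or more, plus weaker picks with an unusually low signal ratio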;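 also: stock transfer was 100 nL into about 20 µL; 0% = negative control wells and 100% = wells with untagged competitor protein; inactives centre near -12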
Sa growth inh – inhibitors of Staphylococcus aureus growth at 42 °C; S. aureus RN4220 growth, OD600, 20 h; stronger effect = lower value; relative growth, % (no concentration beside the values); 170,000 tested, 0.53% active; AID 720641;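 active = growth at 42 °C up to 50% and 20 or more points under that at 30 °C, or under 10% at both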;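 also: 300 nL library stock went into each well; scaled to the means of positive and negative controls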
GIV-Gai inh – GIV-Galpha-i interaction inhibition. 210,000 tested, 0.42% active. AID 1224905. P08753. Galpha-i3/FITC-GIV peptide fluorescence polarization, 90 min; stronger effect = lower value; scaled: aluminum fluoride 0%, vehicle 100%. percent of control (FP), % (test concentration not listed);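 active = replicate mean at 85% of control or lower, very high polarization wells dropped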;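 also: wells of about 15 µL received 100 nL stock; the first replicate is given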
Target sequence (P08753 whole entry, looked up): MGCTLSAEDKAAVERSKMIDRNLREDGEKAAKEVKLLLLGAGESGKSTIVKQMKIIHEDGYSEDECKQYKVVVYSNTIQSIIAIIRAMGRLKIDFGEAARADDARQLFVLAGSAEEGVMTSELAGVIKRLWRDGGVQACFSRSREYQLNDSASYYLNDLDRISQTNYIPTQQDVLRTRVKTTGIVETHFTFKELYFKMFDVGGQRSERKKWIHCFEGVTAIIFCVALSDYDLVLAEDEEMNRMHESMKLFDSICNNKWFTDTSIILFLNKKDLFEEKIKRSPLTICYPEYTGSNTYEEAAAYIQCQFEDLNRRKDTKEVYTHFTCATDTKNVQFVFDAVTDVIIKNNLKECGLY
Sa growth inh second temp – further read-out of Sa growth inh, marked with its call; relative growth, %; measured here: growth at 30 °C;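 optical density after 20 h as mean of two plates; 100% = untreated growth and lower means inhibition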
Active calls of the source: *; · = no result given.

Results follow in this order: HCMV UL50-53 inh	Sa growth inh	Sa growth inh second temp	GIV-Gai inh
COc1ccccc1NC(=O)c1c(-c2ccc(C)cc2)nnc2ccccc12
    ·	114.1	101.9	100.4
COC(=O)C(OC(=O)c1ccc(-n2cccn2)cc1)c1ccccc1 (stereo not given)
    -3.1	137.5	89.4	·
CCOC(=O)c1sc(COc2ccc3nonc3c2)nc1C
    -6.4	96.6	92.4	108.2
O=C(CC(SCc1ccco1)c1ccc(F)cc1)c1cccs1 (stereo not given)
    -9.8	61.5	70.0	·
C/C(=N\NC(=O)Cc1nc2ccccc2n1C)c1ccc(S(=O)(=O)NCCC(=O)O)cc1
    -23.4	89.2	92.3	·
COc1ccc(OC)c(/C=C\C(=O)NCC(=O)O)c1
    ·	91.7	87.6	101.8
Cc1ccc(N(Cc2nc3nc(C)cc(=O)n3[nH]2)C(=O)C(C)C)cc1
    -12.2	·	·	115.5
COc1ccc(C(=O)Nc2nc3c(s2)CCc2cc(OC)ccc2-3)cc1
    3.1	89.3	62.5	103.9
COc1ccc(C(=O)/C=C2\NC(=O)CS2)cc1
    -13.8	106.2	99.1	112.5
O=C(CC1COc2ccccc2O1)NCc1ccccc1 (stereo not given)
    -1.2	113.8	79.0	103.8
COc1cc2[nH]c(=O)c(C(=O)NCCCc3ccccc3)c(O)c2cc1OC
    4.4	112.1	92.0	·
Cc1ccc(CN(Cc2ccco2)C(=O)c2ccccc2Br)o1
    -24.4	102.4	81.9	97.2
CC(NC(=O)Cn1nc(Cc2cccnc2)c2ccccc2c1=O)c1ccc2c(c1)OCCO2 (stereo not given)
    0.4	95.3	77.7	96.3
CCOc1ccc(NC(C)=O)cc1Br
    -49.5	86.1	81.8	·
COC(=O)C1=C(O)/C(=C\c2cc(C)n(-c3ccc(OC)c(Cl)c3)c2C)N=C1C
    ·	64.0	77.5	124.9
COc1ccc(-c2noc(CSc3nnc(C)n3-c3ccc(C)c(C)c3)n2)c(OC)c1
    -19.2	98.2	86.1	100.1
CC1CC(Nc2ccccc2)c2ccccc2N1C(=O)COc1ccc(Cl)cc1 (stereo not given)
    -11.0	·	·	100.6
COc1ccc(C(=O)OCC(N)=O)cc1S(=O)(=O)N1CCCc2ccccc21
    -16.0	86.7	95.9	·
COc1ccc(-c2n[nH]c(=S)n2CCC(=O)NC(C)c2ccccc2)cc1 (stereo not given)
    -6.9	105.0	97.5	·
CCOC(=O)c1c(Nc2ccc(Br)cc2C)n[nH]c1C
    3.6	97.5	104.5	99.8

Next part:
Results follow in this order: HCMV UL50-53 inh	Sa growth inh	Sa growth inh second temp	GIV-Gai inh
CC1(C)C=Cc2cc(OCC(=O)O)ccc2O1
    ·	90.1	89.4	102.2
COc1cccc(CSc2nc3ccncc3n2CC(=O)Nc2ccc(OC)c(OC)c2OC)c1
    10.9	99.4	80.5	101.5
CCC(=O)N1N=C(c2cccs2)CC1c1cccs1 (stereo not given)
    -86.7	109.0	97.6	109.7
O=C(NCCCn1c(-c2ccncc2)nc2cccnc21)NC1CCCC1
    -13.4	·	·	103.4
N#Cc1ccsc1NC(=O)CCS(=O)(=O)c1ccccc1
    -24.8	74.3	62.9	113.7
CCOc1ccc(-n2ccnc2SCC(=O)Nc2cc(C)ccc2C)cc1
    ·	85.5	95.5	98.0
CCN(CC)CCNCc1ccc(-c2ccc(F)cc2)o1
    -8.4	·	·	99.1
CC(=O)N1CCC(N(C(=O)Nc2ccc(Cl)cc2)C2CCCCC2)CC1
    -20.5	100.3	82.1	103.6
CC(=O)NC(C)c1nc2ccccc2n1Cc1ccccc1 (stereo not given)
    ·	96.1	78.5	100.6
Cc1ccc(-c2nccc(N3CCC(C(=O)NCCC4=CCCCC4)CC3)n2)cc1
    -14.8	·	·	105.8
C=CCN1C(=O)C(CC(=O)Nc2ccc(Cl)cc2)SC1=Nc1ccc(O)cc1 (stereo not given)
    -25.1	94.1	52.4	102.5
COc1ncnc2c1sc1nc(N3CCOCC3)c3c(c12)CCCC3
    -12.2	95.8	79.2	98.4
Cc1ccc(-c2nn(-c3ccccc3)cc2/C=C2\SC(=S)NC2=O)cc1
    1.9	123.8	95.3	·
CN(C)c1ccc(/C=N/N=C/c2ccc(N(C)C)cc2)cc1
    -13.2	89.8	90.3	104.5
O=C(Cn1cnc2c(nc3n2CCCCC3)c1=O)Nc1cccc(C(F)(F)F)c1
    ·	105.3	84.9	104.8
O=C(NCCn1c(-c2ccccc2)nc2cccnc21)c1ccc2c(c1)OCO2
    -17.5	·	·	106.0
CCOc1ccccc1N=C1NC(=O)CS1
    ·	76.0	85.7	172.8
COC(=O)c1cc(S(=O)(=O)N(C)CC(=O)Nc2cccc(OC)c2)cn1C
    -16.2	·	·	104.2
Cc1ccc(NC(=O)C(=O)NCC(c2cccnc2)N2CCOCC2)cc1 (stereo not given)
    -20.3	114.4	90.3	97.2
COc1cc(-c2cc3n(C)c(C)c(CCC(=O)O)c(=O)n3n2)cc(OC)c1OC
    -30.8	98.6	91.2	106.8

A draw from above in order of number of heavy atoms, rising.
Results follow in this order: HCMV UL50-53 inh	Sa growth inh	Sa growth inh second temp	GIV-Gai inh
CCOc1ccccc1N=C1NC(=O)CS1
    ·	76.0	85.7	172.8
CC1(C)C=Cc2cc(OCC(=O)O)ccc2O1
    ·	90.1	89.4	102.2
CC(=O)N1CCC(N(C(=O)Nc2ccc(Cl)cc2)C2CCCCC2)CC1
    -20.5	100.3	82.1	103.6
CCOc1ccc(-n2ccnc2SCC(=O)Nc2cc(C)ccc2C)cc1
    ·	85.5	95.5	98.0

Other entries follow:
Results follow in this order: HCMV UL50-53 inh	Sa growth inh	Sa growth inh second temp	GIV-Gai inh
C/C(=N\Nc1nc2sc3c(c2c2ncnn12)CC(C)(C)OC3)C(=O)O
    -32.3	121.1	78.6	99.3
CCC(=O)Nc1ccc2nc(SCc3cc(=O)n4[nH]c(-c5ccccc5)nc4n3)sc2c1
    -10.5	·	·	108.9
COC(=S)Nc1ccc(Cl)cc1C
    -9.5	112.4	67.3	98.5
Cc1ccc2c(c1)c(-n1cccc1)c1n2CC(C)(C(=O)NC2CCC(C)CC2)N(Cc2ccccc2Cl)C1=O (stereo not given)
    -12.3	·	·	109.8
COc1ccc(-n2cc(C(=O)N(CCN(C)C)Cc3ccccc3)c3ccccc3c2=O)cc1
    ·	94.2	93.7	105.6
O=C(NCCC1=CCCCC1)c1ccc2snnc2c1
    -10.3	96.4	87.6	·
Cc1nn(C(=O)c2cc3sc(Br)cc3[nH]2)c(C)c1C
    -10.6	107.5	82.3	103.1
O=C(COc1ccccc1)NC1=NCCS1
    ·	97.7	93.1	101.2
CC12CC3(C)CC(C)(C1)CC(C(=O)O)(C2)C3
    -11.9	151.1	96.3	102.7
CCN1CCSC1=Nc1ccc(OC)cc1
    2.6	98.3	95.8	·
COc1ccc(N(C(=O)c2ccc(C)cc2)S(=O)(=O)c2ccc3c(c2)n(C)c(=O)n3C)cc1
    -22.1	·	·	90.1
N#Cc1c(N)nc(CCc2ccccc2)c(C#N)c1N
    5.1	89.2	78.8	·
CC(CC1C(C#N)=C(N)SC(N)=C1C#N)c1ccccc1 (stereo not given)
    -7.7	54.9	24.5	-73.7*
O=C(NCc1ccccc1Cl)c1cc(-c2ccccc2)n[nH]1
    ·	102.5	90.2	104.1
CC(C)CN(CC(C)C)C(=O)Nc1ccccc1C(F)(F)F
    -22.0	91.1	88.0	·
O=C1CC(c2ccc(F)cc2F)c2cc3c(cc2N1)OCO3 (stereo not given)
    -0.3	94.4	90.6	108.9
Cn1c(=O)c2c(nc(SCC(=O)c3ccccc3)n2CCCc2ccccc2)n(C)c1=O
    ·	121.5	91.0	95.7
O=C(CCn1cccc1)N(CCN1CCOCC1)Cc1ccco1
    -11.6	97.1	87.8	99.4
O=C(Cn1c(=O)n(Cc2ccco2)c(=O)c2sc3ccccc3c21)NC1CCCC1
    -24.0	103.7	91.0	102.2
CCC(C)Nc1nc(NC(C)C)nc(Oc2ccc(C(=O)OC)cc2)n1 (stereo not given)
    12.6	·	·	109.0

The list goes on.
Results follow in this order: HCMV UL50-53 inh	Sa growth inh	Sa growth inh second temp	GIV-Gai inh
O=C(c1cc2c(s1)-c1ccc(Cl)cc1S(=O)(=O)C2)N1CCC(Cc2ccccc2)CC1
    -30.0	·	·	103.7
CCN(CC)CCNC(=O)c1ccc(NS(C)(=O)=O)cc1
    -16.7	·	·	99.3
COC(=O)c1ccc(NC(=O)CSc2ccc(-c3sc(-c4ccccc4)nc3C)nn2)cc1
    ·	71.4	60.8	105.2
COc1ccc(CCNc2ncnc3c2c(-c2ccccc2)cn3-c2ccc(Cl)cc2)cc1OC
    ·	110.1	94.5	104.8
Cc1ccc(Cl)cc1NC(=O)C1CCN(c2nnc(-n3cccc3)s2)CC1
    22.2	·	·	100.1
O=C(O)c1ccc(N/C=C/C(=O)c2ccccc2)cc1
    -105.3	109.8	81.6	103.1
COc1ccc(NCc2cc3cc4c(cc3n(CC(=O)Nc3cc(C)cc(C)c3)c2=O)OCO4)cc1
    ·	87.2	89.7	101.1
Cc1cc(NCc2cccnc2)n2nc(C(F)(F)F)c(-c3ccc(F)cc3)c2n1
    -10.3	·	·	103.5
CCCOc1ccc(-c2cnc(=S)[nH]c2N)cc1
    ·	110.2	94.1	102.7
COC(=O)c1ccccc1NC(=O)c1c(C)nc2ccccn12
    5.7	82.9	90.9	·
ONC(=Nc1cccc(C(F)(F)F)c1)c1ccccc1
    5.0	118.9	95.9	107.6
CCCCN1C[C@H](O)[C@@H](O)[C@H](O)[C@H]1CO
    -45.6	100.5	93.8	101.6
CCOc1ccc(CNCCSc2nnnn2C)cc1OC
    -7.7	86.4	85.6	109.7
CCOc1cc([N+](=O)[O-])cc(/C=C2/SC(=Nc3ccccc3)NC2=O)c1O
    -95.0	·	·	202.2
Cc1nc(-c2ccc(-c3cccs3)s2)sc1-c1ccnn1C(=O)c1cccs1
    -21.1	95.0	87.7	103.3
CCCCN1CCC(N)=NC1=O
    2.8	93.5	97.4	·
COc1ccc(Nc2nc(-c3ccccc3)cs2)cc1
    -4.5	88.8	90.4	·
CC(C)n1nc(C(=O)OCc2nc(N)nc(Nc3ccccc3)n2)c2ccccc2c1=O
    -12.6	117.1	82.7	·
O=C(O)c1cnc(-c2ccc(Cl)cc2)nc1
    -19.4	95.4	86.1	106.2
CCOc1ccc(NS(=O)(=O)c2cc(C(=O)n3nc(C)cc3C)n[nH]2)cc1
    -1.1	·	·	106.0

Next entries:
Results follow in this order: HCMV UL50-53 inh	Sa growth inh	Sa growth inh second temp	GIV-Gai inh
Cc1cc(=S)n2c([nH]c3ccccc32)c1C#N
    -139.1	11.6	11.8	102.3
C=CCOc1ccc2c(C)c(CCCC)c(=O)oc2c1
    -7.7	69.6	81.6	·
Cc1cc(C)c(NC(=O)CSc2nc3c([nH]c4ccccc43)c(=O)n2C)c(C)c1
    ·	109.1	88.2	100.0
Cc1cc(C)cc(OCC(=O)Nc2onc3c2CCCC3)c1
    -28.1	·	·	106.2
O=S(=O)(NCCOc1nnnn1-c1ccccc1)c1ccc(-n2cnnn2)cc1
    -21.8	96.3	81.9	99.9
C=CCn1c(SCC#N)nnc1-c1ccc2ncccc2c1
    4.3	118.2	96.4	109.3
Cn1cc(Br)c(C(=O)O)n1
    -22.3	97.3	82.0	104.4
Cc1cc(NC(=O)c2nn3c(c2Cl)NC(c2ccc(Br)cc2)CC3C(F)(F)F)no1 (stereo not given)
    5.2	·	·	96.3
O=C(CSC1=NCCS1)OCN1C(=O)c2ccccc2C1=O
    -52.5	61.5	69.3	133.7
CCOC(=O)c1c(N)sc2c(OCC)c(Br)ccc12
    -7.8	74.2	72.6	·
Cc1ccc(NC(=O)CN(C)C(=O)Cn2c(=O)cnc3ccccc32)cc1
    -66.2	95.8	88.4	·
CC(C)CCNC(=O)C1=CC=CN2CCS(=O)(=O)N=C12
    -6.7	87.3	91.4	·
Nc1csc2nc(=O)cnn12
    ·	77.3	52.8	95.8
CN(CC1COc2ccccc2O1)c1nc(CN2CCOCC2)nc2sc3c(c12)CCCC3 (stereo not given)
    -16.6	91.1	87.0	·
Cc1ccc(-c2cn3c4c(=O)n(C)c(=O)n(C)c4nc3n2-c2cccc(Cl)c2)cc1
    ·	102.6	101.3	107.1
O=C(NCc1cccnc1)c1cn(C2CC2)c2cc(N3CCN(C(=O)c4cccc(Cl)c4)CC3)c(F)cc2c1=O
    9.1	4.6*	-0.2*	102.6
O=C1c2ccccc2C(=O)N1Cc1ccccn1
    -15.0	106.3	94.2	95.9
CCOc1cccc(NC(=O)C2CC(=O)N(C)C(=Nc3cccc(OC)c3)S2)c1 (stereo not given)
    -12.9	101.7	102.2	113.8
CCNc1nc2c(C)cccc2s1
    -22.9	95.7	85.4	·
O=C(Cc1csc(NC(=O)c2ccccc2)n1)NCc1ccc2c(c1)OCO2
    -33.0	·	·	105.8
COc1ccc(OC)c(NC(=O)CSc2ncc3c(n2)-c2ccccc2N(C)S3(=O)=O)c1
    ·	89.9	88.3	103.9
Cc1cn2c(=O)cc(COC(=O)c3cccc(NC(=O)c4ccccc4Cl)c3)nc2s1
    ·	74.3	83.1	102.7

Results in GIV-Gai inh and Sa growth inh (2 entries from above):
Molecule | GIV-Gai inh | Sa growth inh
CCCCN1CCC(N)=NC1=O | · | 93.5
COc1ccc(Nc2nc(-c3ccccc3)cs2)cc1 | · | 88.8
